c-Myc SMM = binders of human c-Myc, primary screen, biochemical, small molecule microarray, anti-His fluorescence; Myc proto-oncogene protein (Homo sapiens), P01106; His-c-Myc binding; calls only; actives 1.5% (n = 17,000);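 active = spot fluorescence over background with P-value below 7% in all four replicate spots, showing protein binding; compounds were printed on slides so no solution concentration is given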;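 also: score is binary with 100 for all four spots passing and 0 otherwise; about 2 pmol printed per array spot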
Target sequence (P01106 whole entry, looked up): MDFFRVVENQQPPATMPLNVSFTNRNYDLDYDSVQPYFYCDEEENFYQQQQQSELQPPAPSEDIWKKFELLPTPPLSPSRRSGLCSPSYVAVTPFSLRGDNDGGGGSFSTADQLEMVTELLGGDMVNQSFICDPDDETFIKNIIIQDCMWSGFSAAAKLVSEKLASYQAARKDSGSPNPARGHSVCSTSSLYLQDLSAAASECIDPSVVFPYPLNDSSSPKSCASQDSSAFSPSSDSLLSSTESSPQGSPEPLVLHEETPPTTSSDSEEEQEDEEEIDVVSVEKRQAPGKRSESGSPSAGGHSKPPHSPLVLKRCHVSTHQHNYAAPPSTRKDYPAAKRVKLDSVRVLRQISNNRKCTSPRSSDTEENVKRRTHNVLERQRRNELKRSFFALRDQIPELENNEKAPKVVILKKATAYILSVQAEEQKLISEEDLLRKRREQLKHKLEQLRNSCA
STAT3 SMM = STAT3 binders, primary screen, biochemical, small molecule microarray, single point, set 2; His-STAT3 binding, anti-His fluorescence; calls only; actives 0.2% (n = 17,000);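 active = compounds whose four printed spots each show fluorescence over background unusually high for their array block, chance value under 7%; compounds were printed on slides so no solution concentration is given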;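 also: about 2 pmol printed per array spot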
ID4 binder = binders of human ID4 protein, primary screen, biochemical, small molecule microarray, single point. DNA-binding protein inhibitor ID-4 (Homo sapiens), P47928. Flag-ID4 binding, fluorescence F/B. calls only. actives 1.2% (n = 31,000). AID 624137, 2012;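 active = spot signal over background at p below 0.07 in all four prints; compounds were printed on slides so no solution concentration is given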;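 also: a binder raises fluorescence above local background on the spot; about 2 pmol printed per array spot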
Target sequence (P47928 whole entry, looked up): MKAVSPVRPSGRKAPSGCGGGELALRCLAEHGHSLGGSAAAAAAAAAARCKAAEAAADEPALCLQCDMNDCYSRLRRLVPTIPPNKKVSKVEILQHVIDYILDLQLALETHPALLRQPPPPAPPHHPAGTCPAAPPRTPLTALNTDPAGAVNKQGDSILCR
mut p53 SMM = binders of human mutant p53, primary screen, biochemical, small molecule microarray, anti-GST fluorescence; mutant tumor protein p53 (GST-tagged), Homo sapiens; small molecule microarray binding; calls only; actives 0.4% (n = 17,000); AID 624136, 2012;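 active = compounds whose four printed spots each glow above background more than chance allows, each with a p-value under 7%; compounds were printed on slides so no solution concentration is given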;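 also: about 2 pmol printed per array spot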
Calls only. A portion of the library; count on the stated rates, not on these rows.

`C[C@@H]1CN([C@@H](C)CO)C(=O)Cc2cc(NS(=O)(=O)c3cccs3)ccc2O[C@@H]1CN(C)CC1CC1` gave c-Myc SMM inactive, STAT3 SMM inactive, ID4 binder inactive and mut p53 SMM inactive.
Screening CC(C)NC(=O)Nc1ccc2c(c1)C(=O)N([C@H](C)CO)C[C@H](C)[C@@H](CN(C)C(=O)Cc1ccccc1)OCCCC[C@H](C)O2 returned c-Myc SMM inactive, STAT3 SMM inactive, ID4 binder inactive and mut p53 SMM inactive.
C[C@H](CO)N1C[C@H](C)[C@@H](CN(C)S(=O)(=O)c2cccs2)OCc2cn(nn2)CCCC1=O was read as c-Myc SMM inactive, STAT3 SMM inactive, ID4 binder inactive and mut p53 SMM inactive.
For CNC[C@@H]1Oc2ccc(NC(=O)Nc3ccccc3)cc2CC(=O)N([C@@H](C)CO)C[C@H]1C the results were c-Myc SMM inactive, STAT3 SMM inactive, ID4 binder inactive and mut p53 SMM inactive.
`COC(=O)Cn1c2ccccc2c2nc(C)sc21` gave c-Myc SMM inactive, STAT3 SMM inactive, ID4 binder inactive and mut p53 SMM inactive.
Screening COCCOC(=O)N1C(=O)[C@@]2(c3cc(C#Cc4ccc(OC)cc4)ccc31)[C@H](c1ccccc1OCCO)N1[C@H](c3ccccc3)[C@H](c3ccccc3)OC(=O)[C@H]1[C@@H]2C(=O)NC[C@H](O)c1ccccc1 returned c-Myc SMM inactive, STAT3 SMM inactive, ID4 binder inactive and mut p53 SMM inactive.
For C[C@H]1CN([C@@H](C)CO)C(=O)Cc2cc(NS(=O)(=O)c3ccc(Cl)cc3)ccc2O[C@@H]1CN(C)Cc1ccc(Oc2ccccc2)cc1 the results were c-Myc SMM inactive, STAT3 SMM inactive and mut p53 SMM inactive.
`C[C@H]1CN([C@@H](C)CO)C(=O)CCCn2nncc2CO[C@@H]1CN(C)Cc1ccc2c(c1)OCCN2C` gave c-Myc SMM inactive, STAT3 SMM inactive, ID4 binder inactive and mut p53 SMM inactive.
CC(C)NC(=O)Nc1ccc2c(c1)C(=O)N([C@H](C)CO)C[C@H](C)[C@H](CN(C)C(=O)CCCN(C)C)OCCCC[C@H](C)O2 was read as c-Myc SMM inactive, STAT3 SMM inactive, ID4 binder inactive and mut p53 SMM inactive.
For O=C(NCc1nc2ccccc2[nH]1)C1=C[C@H](c2coc3ccccc3c2=O)C[C@H](OCc2ccc(CO)cc2)O1 the results were c-Myc SMM inactive, STAT3 SMM inactive and mut p53 SMM inactive.
For C[C@H]1CN([C@@H](C)CO)C(=O)Cc2cc(NC(=O)NC3CCCCC3)ccc2O[C@@H]1CN(C)C(=O)NC1CCCCC1 the results were c-Myc SMM inactive, STAT3 SMM inactive, ID4 binder inactive and mut p53 SMM inactive.
`C[C@H](CO)N1C[C@H](C)[C@@H](CN(C)C(=O)c2ccccc2)OCCCC[C@H](C)Oc2ccc(NC(=O)Nc3ccc4c(c3)OCO4)cc2C1=O` gave c-Myc SMM inactive, STAT3 SMM inactive, ID4 binder inactive and mut p53 SMM inactive.
Screening COc1ccc(NC(=O)CN(c2cccc3ccccc23)S(C)(=O)=O)cc1OC returned c-Myc SMM inactive, STAT3 SMM inactive, ID4 binder inactive and mut p53 SMM inactive.
For C[C@H]1CN([C@@H](C)CO)C(=O)c2cccc(N(C)C)c2O[C@@H]1CN(C)C(=O)Nc1cccc2ccccc12 the results were c-Myc SMM inactive, STAT3 SMM inactive, ID4 binder inactive and mut p53 SMM inactive.
Screening C[C@H](CO)N1C[C@H](C)[C@H](CN(C)C(=O)NC2CCCCC2)Oc2c(NC(=O)Nc3ccc4c(c3)OCO4)cccc2C1=O returned c-Myc SMM inactive, STAT3 SMM inactive, ID4 binder inactive and mut p53 SMM inactive.
COc1ccc(NC(=O)Nc2cccc3c2O[C@@H](CN(C)S(=O)(=O)c2cccs2)[C@@H](C)CN([C@@H](C)CO)C3=O)cc1 was read as c-Myc SMM inactive, STAT3 SMM inactive, ID4 binder inactive and mut p53 SMM inactive.
Screening C[C@H]1CN([C@@H](C)CO)C(=O)Cc2cc(NS(=O)(=O)c3ccc(Cl)cc3)ccc2O[C@H]1CN(C)Cc1ccc2c(c1)OCO2 returned c-Myc SMM inactive, STAT3 SMM inactive and mut p53 SMM inactive.
`CCO[C@H]1OC(C(=O)NC2CC2)=C[C@@H](C(C)(C)C)[C@@H]1CCCO` gave c-Myc SMM inactive, STAT3 SMM inactive and mut p53 SMM inactive.
`CCC(C)C(OC1OC(C)C(O)C(O)C1O)C(C)C(=O)C(C)/C=C(\C)CC(C)C(O)C(C)C(=O)O` (stereo unspecified) gave c-Myc SMM inactive, STAT3 SMM inactive, ID4 binder inactive and mut p53 SMM inactive.
Screening C[C@@H]1CCCCO[C@@H](CN(C)S(=O)(=O)c2cn(C)cn2)[C@@H](C)CN([C@@H](C)CO)C(=O)c2cc(N(C)C)ccc2O1 returned c-Myc SMM inactive, STAT3 SMM inactive, ID4 binder inactive and mut p53 SMM inactive.
`Cc1ccc(S(=O)(=O)NC2c3cccc4cccc(c34)C2Sc2nnc(N)s2)cc1` (stereo unspecified) gave c-Myc SMM inactive, STAT3 SMM inactive, ID4 binder inactive and mut p53 SMM inactive.
C[C@@H]1CCCCO[C@@H](CN(C)C)[C@@H](C)CN([C@@H](C)CO)C(=O)c2cc(N(C)C)ccc2O1 was read as c-Myc SMM inactive, STAT3 SMM inactive, ID4 binder inactive and mut p53 SMM inactive.
`O=C(NCCNc1ccc([N+](=O)[O-])cc1)c1ccco1` gave c-Myc SMM inactive, STAT3 SMM inactive, ID4 binder inactive and mut p53 SMM inactive.
For C/C(=C\CC[C@@H](C)[C@H]1CC(O)[C@@]2(C)C3CC[C@H]4C(C)(C)[C@@H](O[C@@H]5OC(CO)C(O)C(O)C5OC5OC(CO)C(O)C(O)C5O)CC[C@@]45C[C@@]35CC(O)[C@]12C)C(=O)O (stereo partly specified) the results were c-Myc SMM inactive, STAT3 SMM inactive, ID4 binder inactive and mut p53 SMM inactive.
`Cc1cc(C)nc(SCC(O)COc2ccccc2)n1` (stereo unspecified) gave c-Myc SMM inactive, STAT3 SMM inactive, ID4 binder inactive and mut p53 SMM inactive.
Screening CS(=O)(=O)Nc1ccc(C(=O)CC2(O)C(=O)Nc3ccc(Br)cc32)cc1 (stereo unspecified) returned c-Myc SMM inactive, STAT3 SMM inactive, ID4 binder inactive and mut p53 SMM inactive.
`C[C@@H]1CCC[C@H](C)N1NC(=O)c1ccc(Cl)c(S(N)(=O)=O)c1` gave c-Myc SMM inactive, STAT3 SMM inactive, ID4 binder inactive and mut p53 SMM inactive.
For CC(C)NC(=O)N(C)C[C@@H]1Oc2c(NC(=O)C3CCOCC3)cccc2C(=O)N([C@H](C)CO)C[C@@H]1C the results were c-Myc SMM inactive, STAT3 SMM inactive, ID4 binder inactive and mut p53 SMM inactive.
For C[C@@H]1CN([C@H](C)CO)C(=O)c2cc(NC(=O)C3CC3)ccc2O[C@H]1CN(C)C(=O)Nc1ccc(C(F)(F)F)cc1 the results were c-Myc SMM inactive, STAT3 SMM inactive, ID4 binder inactive and mut p53 SMM inactive.
`COc1ccc(CN(C)C[C@H]2Oc3c(NC(=O)c4ccc(-c5nccs5)cc4)cccc3C(=O)N([C@H](C)CO)C[C@@H]2C)cc1` gave c-Myc SMM inactive, STAT3 SMM inactive, ID4 binder inactive and mut p53 SMM inactive.
C[C@H]1CN([C@@H](C)CO)C(=O)c2cc(NC(=O)C3CC3)ccc2O[C@H]1CN(C)C(=O)Nc1ccc(F)cc1 was read as c-Myc SMM inactive, STAT3 SMM inactive, ID4 binder inactive and mut p53 SMM inactive.
Screening Cc1noc(C)c1S(=O)(=O)Nc1ccc2c(c1)C(=O)N([C@H](C)CO)C[C@@H](C)[C@@H](CN(C)C)OCCCC[C@H](C)O2 returned c-Myc SMM inactive, STAT3 SMM inactive, ID4 binder inactive and mut p53 SMM inactive.
Screening Cc1ccc(-c2cc(C(=O)NCCN3CCOCC3)c3cccc(C)c3n2)c(C)c1 returned c-Myc SMM inactive, STAT3 SMM inactive, ID4 binder inactive and mut p53 SMM inactive.
`C[C@H](CO)N1C[C@H](C)[C@@H](CN(C)S(=O)(=O)c2cccs2)Oc2c(NC(=O)Nc3cccc4ccccc34)cccc2C1=O` gave c-Myc SMM inactive, STAT3 SMM inactive, ID4 binder inactive and mut p53 SMM inactive.
`C[C@H]1CN([C@@H](C)CO)C(=O)c2cc(NS(C)(=O)=O)ccc2O[C@@H]1CN(C)CC1CC1` gave c-Myc SMM inactive, STAT3 SMM inactive, ID4 binder inactive and mut p53 SMM inactive.
Screening COc1ccc(C(=O)Nc2ccc(S(=O)(=O)Nc3cc(C)on3)cc2)cc1 returned c-Myc SMM inactive, STAT3 SMM inactive, ID4 binder inactive and mut p53 SMM inactive.
Screening CCOC(=O)c1cnc(SC2CC(=O)N(c3cccc(F)c3)C2=O)nc1N (stereo unspecified) returned c-Myc SMM inactive, STAT3 SMM inactive, ID4 binder inactive and mut p53 SMM inactive.
Screening C[C@H](CO)N1C[C@H](C)[C@@H](CN(C)Cc2ccc(-c3ccccc3)cc2)Oc2ccc(NC(=O)NC3CCCCC3)cc2CC1=O returned c-Myc SMM inactive, STAT3 SMM inactive and mut p53 SMM inactive.
`C[C@H](CO)N1C[C@H](C)[C@@H](CN(C)CC2CC2)Oc2c(NC(=O)Nc3ccc(C(F)(F)F)cc3)cccc2C1=O` gave c-Myc SMM inactive, STAT3 SMM inactive, ID4 binder inactive and mut p53 SMM inactive.
`Cc1ccc(S(=O)(=O)c2nc(NCCN(C)C)sc2Cl)cc1` gave c-Myc SMM inactive, STAT3 SMM inactive, ID4 binder inactive and mut p53 SMM inactive.
`COc1ccc(S(=O)(=O)N(C)C[C@H]2Oc3c(NS(=O)(=O)c4ccccc4)cccc3C(=O)N([C@@H](C)CO)C[C@H]2C)cc1` gave c-Myc SMM inactive, STAT3 SMM inactive, ID4 binder inactive and mut p53 SMM inactive.
Screening COC(=O)c1cc(Cc2ccccc2)sc1NC(=O)c1cc(-c2cccnc2)nc2ccccc12 returned c-Myc SMM inactive, STAT3 SMM inactive, ID4 binder inactive and mut p53 SMM inactive.
Screening C[C@H]1CN([C@@H](C)CO)C(=O)c2cccc(NC(=O)C3CCCCC3)c2O[C@H]1CN(C)CC1CC1 returned c-Myc SMM inactive, STAT3 SMM inactive, ID4 binder inactive and mut p53 SMM inactive.
`COc1ccc(CN(C)C[C@@H]2Oc3ccc(NC(=O)Cc4ccccc4)cc3C(=O)N([C@H](C)CO)C[C@@H]2C)cc1` gave c-Myc SMM inactive, STAT3 SMM inactive, ID4 binder inactive and mut p53 SMM inactive.
Screening COc1ccccc1NC(=O)COc1ccc(-c2nn(C)c(=O)c3ccccc23)cc1 returned c-Myc SMM inactive, STAT3 SMM inactive, ID4 binder inactive and mut p53 SMM inactive.
`CC(=O)Nc1ccc(S(=O)(=O)Nc2ccc(NC(=O)c3ccco3)cc2)cc1` gave c-Myc SMM inactive, STAT3 SMM inactive, ID4 binder inactive and mut p53 SMM inactive.
Screening COc1ccc(CN(C)C[C@@H]2Oc3c(NC(=O)Nc4c(C)noc4C)cccc3C(=O)N([C@@H](C)CO)C[C@H]2C)cc1 returned c-Myc SMM inactive, STAT3 SMM inactive, ID4 binder inactive and mut p53 SMM inactive.
Cc1nn(C(C)(C)C)c(OC(=O)c2ccc(Cl)cc2)c1S(=O)(=O)c1ccccc1 was read as c-Myc SMM inactive, STAT3 SMM inactive, ID4 binder inactive and mut p53 SMM inactive.
Screening COC(=O)C1=COC(O[C@@H]2O[C@H](CO)[C@@H](O)[C@H](O)[C@H]2O)[C@@H]2[C@@](C)(O)[C@@H](OC(=O)/C=C/c3ccc(OC)cc3)C[C@]12O (stereo partly specified) returned c-Myc SMM inactive, STAT3 SMM inactive, ID4 binder inactive and mut p53 SMM inactive.

Gathered by group, the compounds so far with a Cl atom
For C[C@H]1CN([C@@H](C)CO)C(=O)Cc2cc(NS(=O)(=O)c3ccc(Cl)cc3)ccc2O[C@@H]1CN(C)Cc1ccc(Oc2ccccc2)cc1 the results were c-Myc SMM inactive, STAT3 SMM inactive and mut p53 SMM inactive.
Screening C[C@H]1CN([C@@H](C)CO)C(=O)Cc2cc(NS(=O)(=O)c3ccc(Cl)cc3)ccc2O[C@H]1CN(C)Cc1ccc2c(c1)OCO2 returned c-Myc SMM inactive, STAT3 SMM inactive and mut p53 SMM inactive.
`C[C@@H]1CCC[C@H](C)N1NC(=O)c1ccc(Cl)c(S(N)(=O)=O)c1` gave c-Myc SMM inactive, STAT3 SMM inactive, ID4 binder inactive and mut p53 SMM inactive.
`Cc1ccc(S(=O)(=O)c2nc(NCCN(C)C)sc2Cl)cc1` gave c-Myc SMM inactive, STAT3 SMM inactive, ID4 binder inactive and mut p53 SMM inactive.
Cc1nn(C(C)(C)C)c(OC(=O)c2ccc(Cl)cc2)c1S(=O)(=O)c1ccccc1 was read as c-Myc SMM inactive, STAT3 SMM inactive, ID4 binder inactive and mut p53 SMM inactive.

Screening data: PubChem, Broad Institute
